From PubChem BioAssay
KCNQ2 enhance: potentiators of rat KCNQ2 potassium channel. O88943. CHO-K1 KCNQ2, FluxOR thallium flux fluorescence; active compounds read high. B-score at 10 µM. actives 0.54% (n = 310,000). AID 2239;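 active means fluorescence ratio B-score at least 3 SD of library B-scores, with initial fluorescence B-score within 3 SD, cut at about 5.3 in these data; same plate scores as AID 2156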;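 further: B-score of peak minus minimum over baseline fluorescence ratio after K+ and Tl+ stimulus; positive B-score means potentiation of KCNQ2 with more thallium influx and brighter signal; only the inactives scoring about 0 or higher are listed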
Target sequence (O88943 whole entry, looked up): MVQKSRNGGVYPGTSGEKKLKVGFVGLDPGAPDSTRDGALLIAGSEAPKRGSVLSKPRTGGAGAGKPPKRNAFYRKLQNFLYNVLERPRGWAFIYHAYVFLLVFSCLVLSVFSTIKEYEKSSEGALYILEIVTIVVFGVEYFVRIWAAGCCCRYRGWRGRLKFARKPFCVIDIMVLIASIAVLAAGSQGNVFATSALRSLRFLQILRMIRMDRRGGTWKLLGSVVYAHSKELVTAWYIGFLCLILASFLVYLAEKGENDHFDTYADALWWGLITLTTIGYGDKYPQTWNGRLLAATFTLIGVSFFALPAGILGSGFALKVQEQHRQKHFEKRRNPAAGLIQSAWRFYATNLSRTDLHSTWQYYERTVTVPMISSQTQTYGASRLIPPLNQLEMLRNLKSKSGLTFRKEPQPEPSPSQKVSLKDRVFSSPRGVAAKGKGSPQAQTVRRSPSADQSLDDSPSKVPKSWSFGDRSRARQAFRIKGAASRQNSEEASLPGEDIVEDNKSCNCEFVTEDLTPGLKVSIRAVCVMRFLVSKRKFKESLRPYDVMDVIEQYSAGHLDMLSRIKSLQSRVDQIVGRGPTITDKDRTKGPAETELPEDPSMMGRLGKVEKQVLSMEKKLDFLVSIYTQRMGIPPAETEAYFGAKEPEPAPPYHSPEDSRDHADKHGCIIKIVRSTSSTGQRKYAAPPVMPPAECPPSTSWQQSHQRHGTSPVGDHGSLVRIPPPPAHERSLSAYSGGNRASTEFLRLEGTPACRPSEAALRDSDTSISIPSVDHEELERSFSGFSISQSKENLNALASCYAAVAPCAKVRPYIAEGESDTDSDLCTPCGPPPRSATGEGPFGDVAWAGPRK
KCNQ2 enhance baseline: also measured in KCNQ2 enhance; calls as there; B-score; compound at 10 µM; measured here: initial fluorescence intensity artifact check;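 brightness before thallium and not channel activity; 0 = typical well and far values either way flag optical interference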
An asterisk follows results filed as active. Some of the compounds tested (hit frequency here may not be typical).

Fields: KCNQ2 enhance baseline | KCNQ2 enhance
> CN(CCc1ccccn1)C(=O)CCC1CCCN(C(=O)NC2CCCCC2)C1 (stereo unspecified)
  -0.69 | 0.04
> COc1cc(/C=N/NC(=O)C(N)=O)ccc1OC(=O)c1cccs1
  0.55 | 0.13
> CC1CCN(C(=S)Nc2ccc(F)cc2)CC1
  -0.55 | 0.02
> CC(C)CC(NS(=O)(=O)c1cccc(C(=O)O)c1)C(=O)O (stereo unspecified)
  0.03 | 2.1
> Cc1ccc(NC(=O)CN2C(=O)NC3(CCCCC3C)C2=O)cc1S(=O)(=O)N1CCCCC1 (stereo unspecified)
  0.38 | 0.3
> CCCCn1cnc2c([nH]c3cc(OC)ccc32)c1=O
  1.6 | 0.5
> COc1cc([N+](=O)[O-])cc(/C=N/NC(=O)C(C)Nc2cccc(C)c2)c1O (stereo unspecified)
  -0.48 | 1.2
> Cc1cc(C)nc(SCc2nnc(SCC#N)n2-c2cccc(Cl)c2)n1
  -0.06 | 0.95
> O=C(NCc1ccco1)C(c1ccncc1)N(C(=O)Cc1cccs1)c1ccccc1 (stereo unspecified)
  -1.9 | 1.9
> CCOC(=O)c1cc(C(C)(C)C)nc(SC)c1C#N
  2.4 | 0.01
> Cc1sc(NC(=O)c2cccs2)c(C(=O)OC(C)C)c1C
  0.83 | 0.38
> CCN1CCN(c2nc(Nc3cccc(OC)c3)nc(N)c2[N+](=O)[O-])CC1
  0.11 | 0.52
> COc1ccc(-c2nnc(SC(C)C(=O)NNC(=O)c3ccc(C)cc3)o2)cc1 (stereo unspecified)
  0 | 1.7
> Cc1ccc(F)cc1NC(=O)Cc1ncc(C(F)(F)F)cc1Cl
  0.06 | 0.73
> CCOC(=O)c1c(NC(=O)c2ccc(N3C(=O)[C@@H]4[C@H](C3=O)[C@H]3C=C[C@@H]4C3)cc2)sc2c1CC(C)CC2 (stereo partly specified)
  0.51 | 0.13
> O=c1c2ccccc2nc(N/N=C/c2ccc(O)cc2)n1O
  1.4 | 0.14
> COc1ccc(S(=O)(=O)N(C)CC(=O)NCc2ccco2)cc1
  -0.17 | 0.08
> CCOc1ccc(/C=N/NC(=O)c2nnn(-c3nonc3N)c2-c2ccc(OCC)cc2)cc1
  0.96 | 1.9
> O=C1CCC(=O)N1OCCCOc1ccc2c(c1)CCC2
  0.12 | 1.2
> COc1ccc2c(c1)C(c1ccc(C)o1)=NNC(c1ccccc1)=N2
  0.28 | 0.71

More records follow:
Fields: KCNQ2 enhance baseline | KCNQ2 enhance
> N/C(=N/OC(=O)c1cccc([N+](=O)[O-])c1)c1cccc([N+](=O)[O-])c1
  -0.17 | 0.2
> CCOc1ccc(S(=O)(=O)Nc2cnc3ccccc3c2)cc1
  -0.76 | 0.8
> COc1cc(C(=O)OCC(=O)Nc2c(F)cccc2F)cc(OC)c1C
  -0.74 | 0.53
> NNC(=O)c1ccc([N+](=O)[O-])c(CS(=O)(=O)c2ccc(Cl)cc2)c1
  0.57 | 0.25
> Cc1ccc(NC(=S)NCc2cccs2)c(C)c1
  0 | 4.6
> COC(=O)c1ccc(NC(=S)NC2CC3CCC2C3)cc1 (stereo unspecified)
  1 | 0.03
> Cc1nn(CC(=O)NCc2ccc(OC(C)C)cc2)c(=O)c2cc3occc3n12
  -1 | 0.45
> O=C(O)CCSc1nc2ccccc2n1-c1ccccc1
  2.4 | 1.9
> CC(C)(C)c1ccc(C(=O)c2c[nH]c(C(=O)NCc3ccco3)c2)cc1
  2 | 0.08
> COc1cccc(NC(=O)CN(C)C(=O)CNC(=O)c2ccccc2F)c1
  -0.52 | 1.2
> CC1CN(C2=N/C(=C/c3ccc4c(c3)OCO4)C(=O)N2)CC(C)O1 (stereo unspecified)
  -1.1 | 0.11
> O=C1CN(C(=O)COC(=O)CCC(=O)c2ccc3c(c2)OCCO3)c2ccccc2N1
  0.11 | 0.4
> O=C(Nc1ccc(N2CCOCC2)c(Cl)c1)c1ccc(F)cc1
  -0.19 | 0.74
> O=C(O)C1C2C=CC(C2)C1C(=O)NCc1ccc(Cl)c(Cl)c1 (stereo unspecified)
  -1.2 | 0.59
> O=C(Nc1ccccc1Cl)C1CC(=O)N(c2ccccc2)C1 (stereo unspecified)
  0.77 | 0.48
> Cc1nn(-c2cccc(C(F)(F)F)c2)c(Cl)c1/C=N/n1cnnc1
  -0.28 | 0.73
> CC(C(=O)NCc1ccc(F)cc1)n1ccc2cc(S(=O)(=O)N3CCCC3)ccc21 (stereo unspecified)
  0.38 | 1.5
> CC1CCc2sc(-c3n[nH]c(=S)o3)cc2C1 (stereo unspecified)
  -0.14 | 2.7
> Cn1c(=O)[nH]c(=O)c2c1nc(SCC(=O)O)n2CCc1ccccc1
  -0.52 | 2.3
> CCCN(C(=O)Cc1coc2cc(C)c(C)cc12)c1c(N)n(Cc2ccccc2)c(=O)[nH]c1=O
  -0.01 | 0.98

Some of these compounds in order of the KCNQ2 enhance baseline value, highest first:
Fields: KCNQ2 enhance baseline | KCNQ2 enhance
> CCOC(=O)c1cc(C(C)(C)C)nc(SC)c1C#N
  2.4 | 0.01
> O=C1CCC(=O)N1OCCCOc1ccc2c(c1)CCC2
  0.12 | 1.2
> COc1ccc(-c2nnc(SC(C)C(=O)NNC(=O)c3ccc(C)cc3)o2)cc1 (stereo unspecified)
  0 | 1.7

More compounds follow.
Fields: KCNQ2 enhance baseline | KCNQ2 enhance
> O=C(NC1CCCC1)C(c1ccco1)N(C(=O)c1ccco1)c1ccc(F)cc1 (stereo unspecified)
  0.03 | 0.91
> CC(C)Oc1ccc(C(=O)NCCNC(=O)c2ccco2)cc1
  -1.1 | 0.47
> CC1CCN(CC(=O)Nc2ccc(S(=O)(=O)N3CCCC(C)C3)cc2)CC1 (stereo unspecified)
  -0.22 | 0.79
> CN(C)CCN(Cc1ccccc1)S(=O)(=O)c1csc(C(N)=O)c1
  -0.25 | 0.27
> O=C(C1CCC1)N1CCc2cc(S(=O)(=O)NCCN3CCN(c4ccccc4F)CC3)ccc21
  0 | 0.13
> Cc1cc(C(F)F)n2nc(C(=O)Nc3ccccc3Br)nc2n1
  0.83 | 1.3
> COc1cc(C(=O)O)nc2ccc([N+](=O)[O-])cc12
  -0.54 | 0.07
> CC(CNC(=O)C1CCCCC1C(=O)O)c1ccccc1 (stereo unspecified)
  0.33 | 1
> Cc1cccc(Nc2ncc3c(n2)CC(C)CC3=O)c1 (stereo unspecified)
  0.89 | 0.35
> CCOC(=O)c1csc(NC(=O)c2cc(=O)c3ccccc3o2)n1
  0.3 | 0.18
> CCS(=O)(=O)c1ccc2oc(Nc3cc(C)cc(C)c3)nc2c1
  -0.15 | 0.33
> COc1cc(/C=C(/C#N)C(=O)NCCCc2ccccc2)ccc1OCC(=O)O
  -0.04 | 1.5
> Cc1ccccc1C(=O)Nc1cccc(NC(=S)NC(=O)c2cccs2)c1
  0.25 | 0.59
> COc1ccc(S(=O)(=O)N2CC(C)OC(C)C2)cc1C(=O)N1CCCCC1 (stereo unspecified)
  -1.9 | 1.2
> CN1CCN(C(=O)c2cc(=O)c3cc(Cl)ccc3o2)CC1
  1 | 0.9
> CCOC(=O)/C(N=Nc1sc(C(=O)OC)c(C)c1C(=O)OCC)=C(\O)CCl
  1.4 | 1.3
> c1ccc2c(c1)nc1n2CCN1
  -0.27 | 0.78
> Cc1cc(=O)oc2cc(OCC(=O)OCC(=O)NC(C)C)ccc12
  1.7 | 0.42
> O=c1[nH]ncc(NCCCO)c1Cl
  0.6 | 1.5
> COc1ccc(CCNC(=O)c2cc3c(C)nccc3[nH]c2=O)cc1OC
  -1.2 | 2.9

More results:
Fields: KCNQ2 enhance baseline | KCNQ2 enhance
> O=C(CCc1nnc(CCC2CCCCC2)o1)NCCn1cccn1
  -0.01 | 0.15
> COc1cc2ccccc2cc1C(=O)Nc1ccc(N2CCN(C(=O)C(C)C)CC2)cc1
  -0.91 | 0.03
> COc1ccc(CCNC(=O)c2ccc(N3CCCC3=O)cc2)cc1
  0.71 | 0.36
> COC(=O)C1=C(CS(=O)(=O)c2ccccc2)NC(=O)NC1c1ccc(OC)c(OC)c1 (stereo unspecified)
  -0.07 | 0.42
> CCOC(=O)c1c(CSc2ccccc2)n(C)c2cc(Br)c(OCC(O)CNC(CO)(CO)CO)cc12 (stereo unspecified)
  -0.35 | 1.1
> Cc1ccc(-n2nc(C)cc2NC(=O)CC#N)cc1
  -0.2 | 0.59
> Nc1cccc(NP(=O)(c2ccccc2)c2ccccc2)c1
  0.12 | 0.17
> CCOC(=O)CNC1CC(=O)N(c2ccc(Br)cc2)C1=O (stereo unspecified)
  0.27 | 0.09
> CCCc1nnc(NC(=O)CCC(=O)N2CCN(Cc3cc(F)ccc3OC)CC2)s1
  -1.8 | 1.2
> Nc1c(-c2cccc(Cl)c2)cnn1-c1ccccc1
  -1.3 | 3.2
> COc1cccc(/C=C/C(=O)Oc2ccc(C(=O)c3ccc(F)cc3)cc2)c1
  -1.8 | 1.2
> Cc1c(C(=O)NCCN2CCOC2=O)oc2c(F)cccc12
  -0.08 | 0.69
> Cc1cccc(Cn2nc(C)c(NC(=O)c3ccc(F)cc3)c2C)c1
  0.01 | 0.67
> COC(=O)CSc1ncccc1-c1nc2ccccc2[nH]1
  -1.2 | 0.02
> S=C(NCc1ccc(Cl)c(Cl)c1)NCc1ccco1
  -0.38 | 3.5
> Cn1c(=O)c2c(ncn2CC(=O)OCC(=O)NCc2ccccc2Cl)n(C)c1=O
  2.5 | 0.42
> CCn1c(SCC(=O)Nc2ccc(S(N)(=O)=O)cc2)nnc1-c1cccc(OC)c1
  0.58 | 1.5
> COc1ccc(CN2CCc3ccccc3C2)c(OC)c1
  -0.65 | 1.5
> O=C(Nc1ccc(Cl)c(Cl)c1)Nc1nc(-c2ccccc2)cs1
  -0.32 | 1.8
> CC1(C)C(=O)NCCN1C(=O)c1ccc2nc(Cc3ccccc3F)oc2c1
  -0.07 | 0.14

Going on with the list.
Fields: KCNQ2 enhance baseline | KCNQ2 enhance
> COc1ccc(N2CCN(C(=O)c3ccccc3F)CC2)c([N+](=O)[O-])c1
  0.17 | 0.06
> CC(=O)N1CCN(S(=O)(=O)c2cccc(C(=O)OCC(=O)NC(=O)c3cccn3C)c2)CC1
  -1.1 | 0.08
> C=CCNc1cc(C(F)(F)F)nc(-c2ccccn2)n1
  -0.77 | 1
> O=C(COc1ccc(Br)cc1)NNC(=S)NC(=O)c1ccccc1[N+](=O)[O-]
  0.3 | 0.02
> COc1ccc(CCNC(=O)CCCCCN2C(=O)c3ccccc3C2=O)cc1
  -0.23 | 0.14
> COc1ccccc1C(C)NCC(=O)Nc1c(F)cccc1F (stereo unspecified)
  0.5 | 0.99
> Cc1nnc2ccc(N3CCCCC3)nn12
  0.91 | 2.6
> Cc1ccc2sc(N(CCN(C)C)C(=O)c3ccc(S(=O)(=O)N4CC(C)OC(C)C4)cc3)nc2c1C (stereo unspecified)
  -0.61 | 0.98
> Cc1ccc(-c2c(C)n([O-])c3c([n+]2=O)CCCCC3)o1
  -0.61 | 0.81
> CCC(C)NC(=O)C1CCN(S(=O)(=O)N2CCCC2)CC1 (stereo unspecified)
  -0.17 | 0.07
> COc1ccc(C(=O)NCC(=O)OCC(=O)c2cc(OC)c(OC)c(OC)c2)cc1OC
  -0.39 | 0.88
> Cc1cccc(NC(=O)NNC(=O)CCc2ccccc2)c1
  0.23 | 1.4
> COc1ccc(/C=N/n2cnn(Cc3ccccc3Cl)c2=S)cc1OC
  1.4 | 2.2
> CC(=O)c1ccc(NC(=O)CNC2CCCCC2)cc1
  -2.5 | 0.95
> Cc1cc(C)c(S(=O)(=O)N(CC(=O)N2CCCC2)C2CCCCC2)c(C)c1
  -1.9 | 0.7
> O=C(O)C[C@H]1c2cc(F)ccc2S(=O)(=O)N1C1CCCCC1
  -0.05 | 0.46
> O=C(NCCSc1ccc(Br)cc1)c1ccccc1
  0.01 | 0.62
> O=C(COc1ccc(C(=O)O)cc1)Nc1cccc(C(F)(F)F)c1
  1.3 | 0.74
> COc1ccc(C(=O)CSc2ccccc2C(=O)O)cc1
  -0.55 | 0.15
> CC1CCc2ccc(F)cc2N1S(=O)(=O)c1cccs1 (stereo unspecified)
  -0.46 | 1.2

Following part:
Fields: KCNQ2 enhance baseline | KCNQ2 enhance
> Cc1cc(C)n(CCNc2nc3nonc3nc2N2CCCCC2)n1
  -0.19 | 2
> COc1ccc(N2C(=S)NC3CS(=O)(=O)CC32)cc1 (stereo unspecified)
  -0.03 | 0.08
> CC(=O)N1CCN(C(=O)CSc2cc(C)c(Br)cc2C)CC1
  1.3 | 0.1
> COCCn1c(Cc2ccccc2)nnc1SCC(=O)Nc1cc(C)on1
  -1.5 | 1.8
> Cc1ccc(NC(=O)COC(=O)c2ccc(OCc3c(C)noc3C)cc2)cc1S(=O)(=O)N1CCOCC1
  0.84 | 0.19
> Cc1ccnc(NC(=O)C2CCN(S(=O)(=O)c3cccc(C(F)(F)F)c3)CC2)c1
  0.56 | 0.07
> CCOc1cc(/C=C(\C#N)C(=O)Nc2cccc(C(=O)O)c2)cc(Br)c1OC(=O)c1ccc(OC)cc1
  -1.1 | 1.3

Structural class, the entries above with a nitro group on carbon.
Fields: KCNQ2 enhance baseline | KCNQ2 enhance
> COc1cc([N+](=O)[O-])cc(/C=N/NC(=O)C(C)Nc2cccc(C)c2)c1O (stereo unspecified)
  -0.48 | 1.2
> CCN1CCN(c2nc(Nc3cccc(OC)c3)nc(N)c2[N+](=O)[O-])CC1
  0.11 | 0.52
> N/C(=N/OC(=O)c1cccc([N+](=O)[O-])c1)c1cccc([N+](=O)[O-])c1
  -0.17 | 0.2
> NNC(=O)c1ccc([N+](=O)[O-])c(CS(=O)(=O)c2ccc(Cl)cc2)c1
  0.57 | 0.25
> COc1cc(C(=O)O)nc2ccc([N+](=O)[O-])cc12
  -0.54 | 0.07
> COc1ccc(N2CCN(C(=O)c3ccccc3F)CC2)c([N+](=O)[O-])c1
  0.17 | 0.06
> O=C(COc1ccc(Br)cc1)NNC(=S)NC(=O)c1ccccc1[N+](=O)[O-]
  0.3 | 0.02
